CSC inhib: cancer stem cell viability inhibitors, primary screen, luminescence. cancer stem cell-like cells viability. AID 2717, 2010. inhibition, % at 7.5 µM. 300,000 tested, 1.1% active;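 active means mean at 75% or more and at least half the replicates too; tested in HMLE shEcad cells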;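 further: 0% = median of negative and 100% = median of positive control wells; the first replicate is given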
Rce1 inh: yeast Rce1p protease inhibitors, primary screen, biochemical, fluorescence, cell-free homogeneous | CAAX prenyl protease 2 (Saccharomyces cerevisiae (strain ATCC 204508 / S288c)), Q03530 | yeast membranes, quenched prenylated peptide cleavage fluorescence | calls only | 290,000 tested, 0.27% active | AID 2563, 2010;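 active means fall in fluorescence gain of 50% or more versus controls, with final raw signal at or below 3038400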;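 further: plate controls were neutral control wells for no effect and wells lacking membranes for full effect; tested at 10 µM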
Yeast UUG start: modulators of yeast start codon fidelity, primary screen, whole organism, S. cerevisiae, single point, plate reader. S. cerevisiae UUG-firefly luciferase reporter, luminescence/redox ratio. activity score, % at 18.7 µM. 350,000 tested, 0.13% active. AID 602363, 2012;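 active means replicate mean at a twofold rise or more, about +100% in these data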;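 further: firefly luciferase made from a UUG start codon reports start codon fidelity; reporter light over untreated wells divided by growth signal over untreated wells; some hits fall short of that in this replicate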
eIF4H inh: human eIF4H binding inhibitors, primary screen, translation initiation inhibitor project, biochemical, uHTS, fluorescence polarization; eIF4H fluorescence polarization binding assay; inhibition, % at 35 µM; 290,000 tested, 0.94% active; AID 2012, 2009;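 active means 50% or more with normal probe brightness, or confirmed in later tests; about a fifth of its hits are not listed in these tables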;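 further: calls also rest on retests at 20 µM and on dose response follow-up; 0% = protein and probe with vehicle and 100% = probe without protein; strong numbers were not always called active; many hits fall short of the cut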
MT1-MMP act inh: blockers of MT1-MMP proenzyme processing, primary screen, HT1080 RFP-PRO-GFP cells, GFP/RFP fluorescence. AID 651647, 2012. 360,000 tested, 0.061% active. GFP/RFP ratio fluorescence, overnight; percent of plate control window, DMSO zero. GFP/RFP ratio change, % at 20 µM;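 active means GFP/RFP ratio change of at least 30% with cell ATP level not reduced by more than half and red fluorescence within 50% of control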; further: strong numbers were not always called active
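Test system: HT1080 cells expressing an RFP-PRO-GFP fluorescent reporter construct / Compound dosing: single-point 20 µM compound, 1% DMSO / Schedule: cells overnight before dosing, compound overnight, 37 °C, 5% CO2 / Evaluation: GFP/RFP fluorescence ratio / Control set: DMSO and RFP-L50D-GFP cell wells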
HIV Env fusion: inhibitors of HIV-1 Env-driven cell-cell fusion, primary screen, HeLa-JRFL effector, CEM21 target cells, luciferase; inhibition, % at 12.3 µM; 360,000 tested, 1.1% active;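 active means mean replicate inhibition score of at least 50 and every replicate individually at or above 50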;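 further: 0% = plate neutral controls and 100% = maraviroc near 300 nM; one replicate is shown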
PABP polyA inh: PABP poly(A) RNA binding inhibitors, primary screen, biochemical, fluorescence polarization, uHTS | AID 2014, 2009 | 290,000 tested, 1% active | inhibition, % at 35 µM | Polyadenylate-binding protein 1 (Homo sapiens), P11940;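 active means 50% or more with normal probe brightness, or confirmed in later tests; about a fifth of its hits are not listed in these tables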;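 further: calls also rest on retests at 20 µM and on dose response follow-up; controls were probe without protein and protein plus probe with vehicle; some compounds called inactive have numbers as strong as hits; many hits fall short of the cut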
Target sequence (P11940 whole entry, looked up): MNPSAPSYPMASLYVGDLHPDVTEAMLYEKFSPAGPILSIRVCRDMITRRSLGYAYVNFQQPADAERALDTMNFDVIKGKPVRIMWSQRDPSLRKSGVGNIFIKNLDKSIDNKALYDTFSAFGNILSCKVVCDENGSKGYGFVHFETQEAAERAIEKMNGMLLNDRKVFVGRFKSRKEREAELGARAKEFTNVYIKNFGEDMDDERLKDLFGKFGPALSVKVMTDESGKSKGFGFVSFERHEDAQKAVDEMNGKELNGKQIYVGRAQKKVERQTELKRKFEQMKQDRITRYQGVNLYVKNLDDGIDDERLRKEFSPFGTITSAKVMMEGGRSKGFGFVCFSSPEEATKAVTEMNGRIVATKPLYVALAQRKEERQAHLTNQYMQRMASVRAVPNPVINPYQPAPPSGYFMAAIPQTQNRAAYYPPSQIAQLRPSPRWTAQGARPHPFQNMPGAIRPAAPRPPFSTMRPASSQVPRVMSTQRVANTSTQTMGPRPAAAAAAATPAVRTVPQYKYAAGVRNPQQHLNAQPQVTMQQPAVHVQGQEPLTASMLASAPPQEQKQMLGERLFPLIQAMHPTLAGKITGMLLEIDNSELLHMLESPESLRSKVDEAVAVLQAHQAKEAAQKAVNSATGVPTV
eIF4H inh retest: recorded beside eIF4H inh, whose call it bears; inhibition, %; compound at 20 µM; confirmation average;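 mean of two retest wells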
PABP polyA inh retest: second read-out of PABP polyA inh, no call of its own (marks repeat the call); inhibition, %; compound at 20 µM; confirmation repeats;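 mean of two retest wells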
MT1-MMP act inh RFP: also measured in MT1-MMP act inh; calls as there; RFP signal change, %; measured here: RFP expression control read;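 0 = vehicle wells; hits needed this value within 50% of zero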
Active calls of the source: *; i = inactive; x = not tested or not shown.

SMILES	CSC inhib	Rce1 inh	Yeast UUG start	eIF4H inh	MT1-MMP act inh	MT1-MMP act inh RFP	HIV Env fusion	PABP polyA inh	others
CC(Cc1ccccc1)NC(=O)CC(c1ccccc1)c1ccccc1O (stereo unspecified)	-4	i	-15	-4	0	-8	11	5
NC(=O)C1CCCN(C(=O)c2ccc(Cl)cc2)C1 (stereo unspecified)	-17	i	-17	-2	7	4	x	-10
O=C(O)CCc1ccc(-c2ccccc2)o1	-6	i	-15	-2	-3	0	-23	3
CN(C)c1nc(Cl)nc(N(C#N)CCOc2ccccc2)n1	2	i	x	8	-3	2	-8	-3
CC(C)(C)OC(=O)C[C@H]1C/C=C\C[C@@H](CC(=O)N[C@@H](CO)Cc2ccccc2)C(=O)N2CCC[C@H]2COC1=O	x	x	-7	x	4	4	-25	x
Oc1ccc(/C=N/Nc2cccc(Cl)n2)c(O)c1	21	i	-24	17	5	-5	-120	9
Cc1cc(NC(=O)COC(=O)C(Cc2ccccc2)NC(=O)c2ccco2)no1 (stereo unspecified)	-13	x	-19	-4	0	0	-56	-12
Oc1cccnc1Sc1cccc(C(F)(F)F)c1	7	i	-8	x	-2	-6	6	x
Cn1ccs/c1=N\C(=O)Nc1cccc(Cl)c1	-3	i	x	6	-1	-1	-106	-9
CCOC(=O)C(=NCCCN1CCOCC1)NNc1cccc(C(F)(F)F)c1	86*	i	6	-1	-3	-9	12	5
CCc1nc(SCC(=O)O)c2c3c(sc2n1)COC(C)(C)C3	-3	i	-7	10	1	4	4	7
C=CCNCCCCOc1ccc(OCC)cc1	-6	i	0	-1	5	7	-93	10
CCNC(=O)CC1C(=O)N(c2ccc(F)cc2)C(=O)N1Cc1ccccn1 (stereo unspecified)	-6	i	-8	10	1	1	-30	-10
COc1ccc(-c2ccc(CCC(=O)O)n2CC(=O)Nc2cccc(OC)c2)cc1	-5	i	x	4	-6	-2	0	14
Cc1nnc(SCC(=O)c2ccc(Cl)cc2)s1	8	i	-24	-7	-5	0	6	-5
CC1=CCC2(CO)COC(c3ccccc3O)C1C2 (stereo unspecified)	2	i	3	-1	-11	4	10	4
COC(=O)c1ccc(COC(=O)C2CCN(S(=O)(=O)c3c(Cl)cccc3Cl)CC2)o1	-4	i	x	x	1	-2	-31	x
COc1ccc(-c2cc(C(F)(F)F)n3nc(C)cc3n2)cc1	6	i	-7	-13	3	-1	-6	-3
CCOC(=O)C1=C(NC(=O)c2ccc(Br)o2)Nc2ccccc2N=C1	-1	i	-19	-12	-3	0	-63	2
CCOC(=O)C1=C(C)NC(=O)NC1c1c(C)nn(-c2ccccc2)c1Cl (stereo unspecified)	9	i	x	19	2	-2	x	-11
COc1ccc(C(=O)N2CCC(n3c(C)nc4cc(F)ccc43)CC2)cc1	3	i	x	-7	3	-7	-2	-8
CCC(C)/C(C)=N/NC(=O)c1ccccc1OCCOc1ccccc1 (stereo unspecified)	1	i	x	-8	-2	2	11	-4
Cc1cc(C)cc(OCC(=O)Nc2cccc(-c3nnc(-c4ccco4)o3)c2)c1	16	i	-9	9	1	0	-71	-12
CCN(CC)S(=O)(=O)c1cccc(C(=O)OCC(=O)C23CC4CC(CC(C4)C2)C3)c1	47	i	-14	1	4	-6	-22	-3
COc1cc(NC(=O)C2CCCN(S(=O)(=O)c3ccc4c(c3)CCCN4C(C)=O)C2)cc(OC)c1 (stereo unspecified)	13	i	x	-6	-2	-8	-2	10
SMILES	CSC inhib	Rce1 inh	Yeast UUG start	eIF4H inh	MT1-MMP act inh	MT1-MMP act inh RFP	HIV Env fusion	PABP polyA inh	others
CCCC(c1nnnn1CC1CCCO1)N1CCN(c2cc(Cl)ccc2C)CC1 (stereo unspecified)	99*	i	42	0	-14	-16	x	15
COc1cc(C(=O)NNC(=O)c2ccccc2Br)ccc1OCC(=O)N1CCOCC1	-14	i	-18	x	-3	3	-23	x
COc1ccc(C(=O)NC2CC2)cc1OC1CCN(Cc2ccc(F)cc2)CC1	-15	i	-5	9	-4	3	-17	-5
Oc1ccc(C[C@H]2CN([C@@H](Cc3ccc(O)cc3)CN3CCC[C@@H]3CN3C(=S)NC[C@@H]3Cc3ccccc3)C(=S)N2CCc2ccccc2)cc1	x	x	-20	x	-5	-5	-117	x
CC(=O)c1ccc(NC(=O)Cc2ccsc2)cc1	-15	x	-6	46	5	8	-11	1
COc1ccc(/C=c2\s/c(=C(/C#N)C(=O)NCc3ccco3)n(-c3ccccc3)c2=O)cc1	4	i	6	1	-1	-3	1	4
Cc1cc(C(=O)CSc2nnnn2C)c(C)n1Cc1ccco1	-11	x	x	46	2	-5	-22	14
CC(C)NC(=O)c1cc2c(=O)n3ccccc3nc2s1	-4	i	-2	-6	2	4	11	-4
Cc1ccc(S(=O)(=O)NC(=O)COc2ccc([N+](=O)[O-])cc2)cc1	-5	i	-18	-9	-2	0	12	11
CCOC(=O)c1ccc(NC(=O)C2CC(=O)Nc3nc4ccccc4n32)cc1 (stereo unspecified)	-9	i	x	-4	0	-1	4	55	eIF4H inh retest=46;PABP polyA inh retest=44
CC(=O)Nc1ccc2nc(SCC(=O)N3CCOCC3)sc2c1	x	i	x	0	1	3	-9	-6
CCCSc1nnc(-c2c[nH]c3ccccc23)n1C	19	i	-6	-2	-4	-4	-42	3
O=C(N/N=C/c1cccnc1)c1cccs1	-12	i	x	-10	0	3	-12	-4
CCN(CC)Cc1c(C(=O)OC(C)C)nnn1-c1nonc1N	x	i	-16	1	0	3	x	8
Cc1ccc(C(=O)CSc2nnc(CNc3ccc(C)cc3C)o2)cc1	7	i	-24	-8	-1	0	46	-5
Cc1ccc(S(=O)(=O)N2C[C@H]3[C@H]4C(=O)N(c5ccccc5)C(=O)[C@H]4C[C@H](OC(=O)NCc4ccccc4)[C@@]3(O)C2)cc1	x	x	22	x	1	5	0	x
O=C(NCC(c1ccco1)N1CCCC1)c1cccc(S(=O)(=O)Nc2ccc(F)cc2)c1 (stereo unspecified)	2	x	-13	x	-4	-7	x	x
CN(C)c1cccc(C(=O)OCC(=O)NC(=O)NCc2ccccc2)c1	3	x	-18	x	3	-2	31	x
N#Cc1c(N)sc2c1CCN(C(=O)OCc1ccccc1)C2	16	i	3	28	20	2	x	26
CCOC(=O)c1c(C)[nH]c(C)c1C(=O)COC(=O)CNC(=O)c1ccc(OCC)cc1	-9	i	-6	33	-8	-4	2	5
COc1ccc(-c2csc(C(NC(C)=O)c3ccccc3)n2)cc1 (stereo unspecified)	x	x	-11	x	-1	0	-6	x
NS(=O)(=O)c1ccc(CNC(=O)Cc2c(F)cccc2Cl)cc1	-15	i	-2	5	-3	0	18	3
Cc1ccc(S(=O)(=O)N2CCN(C(=O)COC(=O)COc3cccc(C(F)(F)F)c3)CC2)c(C)c1	0	x	1	x	1	3	-5	x
COc1ccccc1OCC(=O)N(Cc1nnc(-c2ccccc2Cl)o1)C1CC1	-9	i	x	x	2	-1	-1	x
CN1CCc2ccc(NC(=O)c3ccc(C(F)(F)F)cc3)cc2C1	-15	i	-4	8	-2	-23	1	-7

Retrieved by compound from the list above (two):
SMILES	CSC inhib	Rce1 inh	Yeast UUG start	eIF4H inh	MT1-MMP act inh	MT1-MMP act inh RFP	HIV Env fusion	PABP polyA inh	others
Cc1cc(C(=O)CSc2nnnn2C)c(C)n1Cc1ccco1	-11	x	x	46	2	-5	-22	14
Oc1ccc(C[C@H]2CN([C@@H](Cc3ccc(O)cc3)CN3CCC[C@@H]3CN3C(=S)NC[C@@H]3Cc3ccccc3)C(=S)N2CCc2ccccc2)cc1	x	x	-20	x	-5	-5	-117	x

Structures listed so far that contain a Cl atom (ten):
SMILES	CSC inhib	Rce1 inh	Yeast UUG start	eIF4H inh	MT1-MMP act inh	MT1-MMP act inh RFP	HIV Env fusion	PABP polyA inh	others
NC(=O)C1CCCN(C(=O)c2ccc(Cl)cc2)C1 (stereo unspecified)	-17	i	-17	-2	7	4	x	-10
CN(C)c1nc(Cl)nc(N(C#N)CCOc2ccccc2)n1	2	i	x	8	-3	2	-8	-3
Oc1ccc(/C=N/Nc2cccc(Cl)n2)c(O)c1	21	i	-24	17	5	-5	-120	9
Cn1ccs/c1=N\C(=O)Nc1cccc(Cl)c1	-3	i	x	6	-1	-1	-106	-9
Cc1nnc(SCC(=O)c2ccc(Cl)cc2)s1	8	i	-24	-7	-5	0	6	-5
COC(=O)c1ccc(COC(=O)C2CCN(S(=O)(=O)c3c(Cl)cccc3Cl)CC2)o1	-4	i	x	x	1	-2	-31	x
CCOC(=O)C1=C(C)NC(=O)NC1c1c(C)nn(-c2ccccc2)c1Cl (stereo unspecified)	9	i	x	19	2	-2	x	-11
CCCC(c1nnnn1CC1CCCO1)N1CCN(c2cc(Cl)ccc2C)CC1 (stereo unspecified)	99*	i	42	0	-14	-16	x	15
NS(=O)(=O)c1ccc(CNC(=O)Cc2c(F)cccc2Cl)cc1	-15	i	-2	5	-3	0	18	3
COc1ccccc1OCC(=O)N(Cc1nnc(-c2ccccc2Cl)o1)C1CC1	-9	i	x	x	2	-1	-1	x

The listing continues.
SMILES	CSC inhib	Rce1 inh	Yeast UUG start	eIF4H inh	MT1-MMP act inh	MT1-MMP act inh RFP	HIV Env fusion	PABP polyA inh	others
O=C(NNC(=O)c1ccccc1-c1ccccc1C(=O)O)c1ccccc1	-9	i	x	5	0	4	2	10
CN(C(=O)COc1ccccc1)C1CCS(=O)(=O)C1 (stereo unspecified)	-9	i	x	-2	0	5	-1	-2
Cc1cccc(NC(=O)CSCC(=O)Nc2cc(S(=O)(=O)N3CCOCC3)ccc2N2CCCC2)c1	-4	i	8	-10	-1	-2	8	-2
CC1(C)Oc2ccc(C(=O)NC3CCCCC3)cc2N(CC#N)C1=O	-7	i	-3	-12	1	-1	-9	-3
Cc1ccc(C(=O)N/N=C\C=C\c2ccc(Br)cc2)cn1	17	i	x	4	3	2	5	4
Cc1cccc(N2C(=S)NC3c4ccccc4OC2(C)C3C(=O)N(C)C)c1 (stereo unspecified)	1	i	x	11	4	7	-2	12
Nc1nc2n(n1)C(c1c(F)cccc1Cl)CC(c1ccc(F)cc1)N2 (stereo unspecified)	x	i	-2	-6	3	-1	2	-4
COc1ccc(-c2c(-c3cc(OC)cc(OC)c3)n(C)c3ccc(Br)cc23)cc1	11	x	-11	x	-9	-3	0	x
CC1=C(C(=O)N(C(C)C)C(C)C)CC(CC(=O)NC2CCCC2)C(=O)N1Cc1ccc(C(C)(C)C)cc1 (stereo unspecified)	x	x	6	x	-12	-9	15	x
CCCCNc1nc2c(c(=O)[nH]c(=O)n2C)n1CCOc1ccccc1	-8	i	9	-12	-3	-2	-11	2
CN(C)c1ccc(/C=C(\C#N)C(=O)NCc2ccco2)cc1	-10	i	x	-6	x	x	x	19
Cc1nn(C)cc1CN(C)C(=O)c1sc2cccc(Cl)c2c1Cl	x	i	-10	-5	2	2	x	3
COc1cc2c(cc1OC)CN(C(=O)CN1CCN(S(=O)(=O)c3ccc(C)c(C)c3)CC1)CC2	-10	i	9	8	0	-11	34	6

Bioassay records: PubChem BioAssay, several laboratories
